# Bioassay records deposited in PubChem by several laboratories.
# RecA intein inh = Mtb RecA intein splicing inhibitors, primary screen, biochemical, fluorescence, HTS; Protein RecA (Mycobacterium tuberculosis (strain ATCC 25618 / H37Rv)), P9WHJ3; cell-free RecA intein splicing; inhibition, %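 (about 9 µM by stock and volumes)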; 290,000 tested, 0.75% active; in the data active = inhibition above about 30%; inconclusive = no clear call, values can overlap the other calls;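 also: 0% = vehicle wells and 100% = reference inhibitor control wells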
# Target sequence (P9WHJ3 whole entry, looked up): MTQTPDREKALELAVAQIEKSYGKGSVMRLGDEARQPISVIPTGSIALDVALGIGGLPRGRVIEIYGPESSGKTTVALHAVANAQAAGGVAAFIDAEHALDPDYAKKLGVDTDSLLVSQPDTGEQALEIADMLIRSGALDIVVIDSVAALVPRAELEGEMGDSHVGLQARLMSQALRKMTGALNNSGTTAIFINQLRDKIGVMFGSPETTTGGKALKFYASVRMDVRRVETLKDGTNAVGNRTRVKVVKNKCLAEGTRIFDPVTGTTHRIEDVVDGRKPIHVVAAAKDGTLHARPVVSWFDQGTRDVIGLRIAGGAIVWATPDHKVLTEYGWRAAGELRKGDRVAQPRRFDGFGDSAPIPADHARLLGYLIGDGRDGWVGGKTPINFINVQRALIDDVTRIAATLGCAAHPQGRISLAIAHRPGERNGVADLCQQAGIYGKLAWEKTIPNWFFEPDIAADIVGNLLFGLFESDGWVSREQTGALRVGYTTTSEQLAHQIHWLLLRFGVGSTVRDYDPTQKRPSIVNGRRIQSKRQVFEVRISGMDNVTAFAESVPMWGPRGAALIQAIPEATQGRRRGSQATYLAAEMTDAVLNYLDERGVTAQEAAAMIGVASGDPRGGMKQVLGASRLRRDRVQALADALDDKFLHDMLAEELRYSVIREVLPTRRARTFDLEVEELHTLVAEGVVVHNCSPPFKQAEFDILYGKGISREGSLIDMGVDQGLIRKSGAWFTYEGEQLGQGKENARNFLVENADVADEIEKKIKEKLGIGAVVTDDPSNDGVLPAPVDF
# Arbovirus anti = antivirals against arbovirus infection, primary screen, cell-based, full library, 10K replicate subset; arbovirus infection cell-based antiviral screen; inhibition, % at 10 µM; 200,000 tested, 0.37% active; AID 1251, 2008;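 active = inhibition from about 30%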;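 also: bluetongue infection of BSR cells; cell survival read as ATP light after 72 h; 0% = infected wells without compound and 100% = uninfected wells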
# YopH inh = YopH tyrosine phosphatase inhibitors, primary screen, biochemical, fluorescence Ex485/Em525. inhibition, %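 (about 10 µM by stock and volumes)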. 140,000 tested, 0.16% active. AID 898, 2007;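 active = inhibition of 50% or more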;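 also: controls were vehicle for no effect and minimum signal wells for full effect; inactives centre near -20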
# Mtb betalactam = beta-lactam sensitization of Mtb H37Rv, H37Rv | M. tuberculosis H37Rv growth with meropenem, percent inhibition; hits of this screen are not shown here | inhibition, % at 25 µM | 330,000 tested, 0.27% active | AID 434955, 2010;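 active = about 74% or more and at least 40 points above the plate without the antibiotic, then above 30% in a dose series; inconclusive = first-round hits that could not be retested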;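 also: growth measured after seven days incubation then overnight dye step; 0% = bacteria only wells and 100% = bacteria with antibiotic; twin plates without the antibiotic show which effects depend on it; some results filed as inactive read as strong as hits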
# Mtb growth = M. tuberculosis H37Rv growth inhibitors, H37Rv strain (AID 1626) | M. tuberculosis H37Rv growth inhibition; higher % means a stronger effect | inhibition, % at 10 µM; hits with a dose series show IC50 in µM | 220,000 tested, 0.95% active;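 active = confirmed in a dose series; inconclusive = inhibition above 80% but not taken into the dose series; inactive = below 80% or under 30% at every dose of the series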;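 also: bacteria incubated seven days before Alamar blue readout; 0% = bacteria only wells and 100% = bacteria with antibiotic wells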
# Arbovirus anti repeat = second read-out of Arbovirus anti, no call of its own (marks repeat the call); inhibition, %; measured here: 10K subset replicate screen; many hits read low in the repeat;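 first of two repeat runs on a subset; 0% = infected and 100% = uninfected wells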
# The depositor's hits bear a star; ? = inconclusive; . = not tested or not shown. Only part of the results is shown, so the mix of outcomes need not match the whole.
SMILES,RecA intein inh,Arbovirus anti,YopH inh,Mtb betalactam,Mtb growth,others
CCCS(=O)(=O)Nc1ccc2cn[nH]c2c1,4.3,4,.,-5,8%,
O=C(Nc1ccc2c(c1)OCCO2)c1coc2ccccc2c1=O,-12,-12,-21,83,?,
COc1ccc(C(=O)CSc2nccc(=O)[nH]2)cc1,-2.4,0,-5,0,-4%,
CC(C)(C)c1ccc(NC(=S)NCc2cccs2)cc1,10,-20,-7,57,12%,
CCCCCC(O)CCC(=O)NNC1=CC(=O)CC(C)(C)C1 (stereo not drawn),-2.4,10,.,-4,6%,
S=C(c1ccc(-c2ccccc2Cl)o1)N1CCOCC1,-6.1,4,-22,8,6%,
COc1ccc(NC(=O)C2C(=O)N(C)C3(C)CC2c2ccccc2O3)cc1 (stereo not drawn),2.9,3,1,-8,7%,
Cc1ccc(COn2c(-c3ccc(Cl)cc3)nc3ccc([N+](=O)[O-])cc32)cc1,7.6,-5,-9,10,2%,
Cc1ccc2c(CN3CCCCC3)cc(=O)oc2c1C,0.2,.,.,0,.,
CC(=O)N1CCc2cc(S(=O)(=O)NCC(=O)NCc3ccccc3Cl)ccc21,-0.1,.,.,1,.,
CCOc1nc(N2CCCCC2)nc(-n2cc(-c3ccccc3)nn2)n1,1.5,1,1,-4,0%,
Cc1ccc(Nc2c(-c3ccc(C)o3)nc3ncccn23)cc1,-0.9,.,.,-4,57%,
COc1ccc(N(CC(=O)NC2CCCCC2)C(=O)CCC(=O)Nc2nc(C)cs2)cc1OC,-1.6,.,.,3,.,
O=C(C1CCCCC1)N1CCN(c2ccccc2F)CC1,1.3,1,-10,3,2%,
CCOC(=O)c1cc(C#N)c(N2CCCCC2)nc1-c1ccccc1,13,.,-38,9,9%,
COc1cc(S(=O)(=O)Nc2cccnc2)ccc1F,-1.0,4,-40,-3,0%,
c1ccc2c3c([nH]c2c1)CCNC3,3.7,.,.,6,.,
S=C(NCc1ccccc1)NC1CCCc2ccccc21 (stereo not drawn),8.3,12,.,2,7%,
O=C1CC(SCc2nc3ccccc3[nH]2)C(=O)N1c1cccc(F)c1 (stereo not drawn),-6.8,-8,-5,-6,.,
N#Cc1c(NC(=O)c2cc(C3CC3)on2)sc2c1CCC2,-2.2,-10,-47,3,7%,Arbovirus anti repeat=-11

# 6 successive records from above:
SMILES,RecA intein inh,Arbovirus anti,YopH inh,Mtb betalactam,Mtb growth,others
Cc1ccc2c(CN3CCCCC3)cc(=O)oc2c1C,0.2,.,.,0,.,
CC(=O)N1CCc2cc(S(=O)(=O)NCC(=O)NCc3ccccc3Cl)ccc21,-0.1,.,.,1,.,
CCOc1nc(N2CCCCC2)nc(-n2cc(-c3ccccc3)nn2)n1,1.5,1,1,-4,0%,
Cc1ccc(Nc2c(-c3ccc(C)o3)nc3ncccn23)cc1,-0.9,.,.,-4,57%,
COc1ccc(N(CC(=O)NC2CCCCC2)C(=O)CCC(=O)Nc2nc(C)cs2)cc1OC,-1.6,.,.,3,.,
O=C(C1CCCCC1)N1CCN(c2ccccc2F)CC1,1.3,1,-10,3,2%,

# Returning to the listing with the 6 entries that preceded the break.
SMILES,RecA intein inh,Arbovirus anti,YopH inh,Mtb betalactam,Mtb growth,others
CCOC(=O)c1cc(C#N)c(N2CCCCC2)nc1-c1ccccc1,13,.,-38,9,9%,
COc1cc(S(=O)(=O)Nc2cccnc2)ccc1F,-1.0,4,-40,-3,0%,
c1ccc2c3c([nH]c2c1)CCNC3,3.7,.,.,6,.,
S=C(NCc1ccccc1)NC1CCCc2ccccc21 (stereo not drawn),8.3,12,.,2,7%,
O=C1CC(SCc2nc3ccccc3[nH]2)C(=O)N1c1cccc(F)c1 (stereo not drawn),-6.8,-8,-5,-6,.,
N#Cc1c(NC(=O)c2cc(C3CC3)on2)sc2c1CCC2,-2.2,-10,-47,3,7%,Arbovirus anti repeat=-11
S=C(NCCc1ccccc1)Nc1c(Cl)cccc1Cl,2.1,.,.,-1,3%,
CCN(CCCNC(=O)CCc1nc(-c2ccc(C)cc2)no1)c1cccc(C)c1,-2.2,3,7,-11,14%,
Cc1cc(NC(=O)CCC(=O)N(c2ccc(F)cc2)C(C(=O)NC2CCCC2)c2ccc(C)o2)no1 (stereo not drawn),-0.9,6,.,-2,-7%,
COc1ccc(N2CCN(CC(=O)Nc3cccc(S(=O)(=O)N4CCOCC4)c3)CC2)cc1,-3.0,-4,-43,-4,-10%,
COc1ccc(-c2csc(-c3ccc(C(=O)O)cc3)n2)cc1,1.1,2,.,54,12%,
Cc1cc(C(=O)OCC(=O)Nc2ccc(S(N)(=O)=O)cc2)c2ccccc2n1,0.4,-1,.,3,0%,
Nc1nonc1-n1nnc(C(=O)N/N=C/c2ccc(F)cc2)c1-c1ccc2c(c1)OCO2,-0.7,.,.,2,.,
CCc1nc2ccccc2c(C(=O)OCC(=O)NC(=O)c2cccn2C)c1C,3.2,.,.,10,-1%,
COC(=O)C1C(=O)NC(SC)=C(C#N)C1c1ccccc1 (stereo not drawn),2.3,-4,-45,-9,4%,
CC(C)(CC(=O)O)Cc1nc(-c2ccc(Cl)cc2)no1,0.3,4,-52,4,-7%,Arbovirus anti repeat=1
CCCn1c(SCC(=O)N2CCCC(C)C2)nnc1-c1cccnc1 (stereo not drawn),1.5,-3,.,3,4%,
O=C(O)C1Cc2ccccc2CN1C(=O)COc1ccc(Cl)cc1Cl (stereo not drawn),1.6,-1,.,-8,5%,
COc1ccc(CCNC(C)=O)cc1,1.3,1,2,5,-13%,
CC1(C)CC2(CC(C)(C)N1)OC(=O)N1CCc3ccccc3C12C (stereo not drawn),1.2,5,-33,-3,-4%,Arbovirus anti repeat=1
CC(NC(=O)COC(=O)C1CCN(c2ccc(C(F)(F)F)cn2)CC1)c1ccc(Br)cc1 (stereo not drawn),17,.,.,-1,.,
O=C(c1ccc2ccccc2n1)N(CCO)Cc1ccccc1,0.3,.,.,-3,.,
Cc1ccc(NC(=O)C(NCc2ccccn2)c2ccccc2)cc1 (stereo not drawn),1.2,0,.,5,2%,
O=C(NCCc1ccc(Cl)cc1)C1CCN(C(=O)N2CCOc3ccccc32)CC1,2.6,.,.,7,.,
CCn1c(C)nc2cc(C#N)ccc21,1.5,3,.,3,-1%,
COC(=O)Cc1c(C)c2ccc(OCC(=O)N3CCC(C)CC3)c(C)c2oc1=O,0.1,.,.,-18,.,
COc1cc(CNCC(C)C)cc(Br)c1OCC(=O)Nc1ccccc1,.,14,-14,-18,1%,
COc1cccc(NC(=S)NN=C2CCC(C(C)(C)C)CC2)c1 (stereo not drawn),1.3,-5,.,-8,2%,
COc1ccccc1CC(=O)N1CCCc2ccccc21,-3.4,6,-7,-15,-2%,
COc1ccc(S(=O)(=O)N(C)c2ccc(C(=O)N3CCCCC3)cc2)cc1,2.8,.,.,?,.,
N#Cc1cc(C(=O)c2cc(Br)ccc2O)cn(C2CC2)c1=O,-0.9,6,-29,9,-4%,
Cc1ccc(S(=O)(=O)N2CCN(C(=O)CCn3cncn3)CC2)cc1C,8.7,.,.,-3,.,
O=C(NCc1ccccc1Cl)C1CCN(C(=O)c2sccc2-n2cccc2)CC1,-3.6,-3,-25,-1,5%,Arbovirus anti repeat=-3
O=C(CCn1cccc1)NC1CCCc2ccccc21 (stereo not drawn),-6.9,-4,-2,8,-6%,
CCOn1c(=O)c(=O)n(OC)c2ccccc21,-0.9,.,.,-2,-3%,
Cc1cnc(C(=O)Nc2cc(S(=O)(=O)N3CCOCC3)ccc2N2CCN(C)CC2)cn1,-2.2,12,-12,4,-3%,
CCOC(=O)c1c(C)n(C)c2ccc(OC(=O)c3ccoc3)cc12,10,1,-14,5,3%,
CC(=O)Nc1nc(SCC(=O)NCc2ccc(F)cc2)[nH]c(=O)c1NC(=O)c1cccs1,-0.3,5,.,7,-6%,
O=C(O)Cc1csc(-c2cccc(F)c2)n1,1.7,-6,.,-4,-2%,
CC1Cc2ccccc2C(=O)N1 (stereo not drawn),-1.2,6,-25,-4,-3%,Arbovirus anti repeat=3
Cc1ccc(Cn2c(=N)c(S(=O)(=O)c3ccc(Br)cc3)cc3c(=O)n4ccccc4nc32)cc1,0.4,.,.,-12,.,
Cn1cccc1Cc1nnc(SCC(=O)Nc2cccc(F)c2)n1CCc1ccccc1,4.6,-9,-18,1,6%,
CNC(=S)N1N=C(c2ccc(OC)cc2)CC1c1ccc(N(C)C)cc1 (stereo not drawn),0.0,12,-35,-3,0%,
COc1ccc(S(=O)(=O)N(C)CC(=O)N2CCC(C(N)=O)CC2)cc1,2.5,8,-11,-5,0%,
COc1ccccc1OCC(=O)OCn1c(SC)nnc(C)c1=O,2.0,4,-25,-2,-14%,
CCCCn1c(=O)[nH]c(=O)c2c1nc(-c1ccc(OC(F)F)c(OC)c1)n2C,0.3,.,.,3,.,
COc1ccc(Cl)cc1C(=O)Nc1ccccc1N1CCN(C)CC1,8.6,-49,0,93,42%,
CCOC(=O)NC(=O)C(=CNc1ccccc1OC)C(=O)NC(=O)OCC,-1.2,0,7,-5,2%,
Cc1ccccc1/C=N/n1c(COc2ccccc2)n[nH]c1=S,-1.3,.,.,2,.,
CCSc1nc2ccccc2n1C(=O)c1ccc(S(=O)(=O)N2CCCCC2)cc1,9.4,-2,4,8,-13%,
CCOC(=O)N1CCN(S(=O)(=O)N2CCCC(C(=O)NCc3ccc(OC)cc3)C2)CC1 (stereo not drawn),-4.9,.,.,2,.,
COc1ccc(N2C(=O)C3CCCN3C2c2ccc(F)cc2)cc1Cl (stereo not drawn),3.2,5,37,12,-5%,
CNC(=S)N(Cc1ccc(Cl)cc1)Cc1cccs1,3.1,.,.,-9,-6%,
COc1cc(C(N)=O)cc(Br)c1OC,-1.1,8,-55,-8,-7%,
CCOC(=O)C1CSC(CC(=O)Nc2ccc(Cl)cc2)C(=O)N1 (stereo not drawn),-0.1,3,30,8,-6%,
Cc1ccc(S(=O)(=O)NCCCNC(=O)c2ccccc2)cc1,0.5,-1,24,-13,-11%,
COc1ccc(NC(=O)C(Cc2ccccc2)n2cccc2)cc1OC (stereo not drawn),5.7,.,.,-1,5%,
COc1ccc(NC(=O)CCSCCc2ccccn2)cc1OC,-0.2,3,.,1,0%,
Cn1cnnc1SCC(=O)Nc1ccc2nc(SCc3ccccc3Cl)sc2c1,3.4,-11,8,-10,-8%,
O=C(CNC(=O)c1ccccc1Cl)OCC(=O)N1CCc2ccccc21,3.1,10,.,-6,7%,
COC(=O)COc1ccc2occ(C(C)=O)c2c1,-4.4,1,-40,-3,4%,
COc1cc2c(=O)n(Cc3ccco3)c(=O)n(CC(=O)c3cccc(Br)c3)c2cc1OC,0.8,-14,38,90,24%,
CCN(CC)S(=O)(=O)c1ccc2c(c1)nc(SCc1nc3ccsc3c(=O)[nH]1)n2CC,-0.2,4,-36,-4,-8%,
CN1/C(=C\C(=O)CN2C(=O)NC3(CCCCCC3)C2=O)C(C)(C)c2ccccc21,0.9,3,-20,87,0%,
CCCCNC(=O)COC(=O)c1ccc(NC(C)=O)cc1,1.0,13,.,-2,-5%,
CC(C)Oc1ccc(C(=O)Nc2ccc3c(c2)n(C)c(=O)n3C)cc1,0.4,.,.,4,.,
# Later entries
SMILES,RecA intein inh,Arbovirus anti,YopH inh,Mtb betalactam,Mtb growth,others
COc1ccc(N2CC(C(=O)N/N=C/c3ccccc3)CC2=O)cc1 (stereo not drawn),-1.5,-1,.,5,-12%,
CS(=O)(=O)C1=NSC2=NC(=O)/C(=C\c3ccc(OC(=O)c4ccco4)cc3)C(=N)N21,35*,.,.,92,.,
COc1ccc(CC(=O)OCC(=O)NCc2ccccc2Cl)cc1OC,0.6,-3,.,0,-7%,
Cn1c(SCC(=O)c2ccccc2)ncc(C(=O)Nc2ccc(F)cc2)c1=O,-0.5,.,.,-10,.,
O=C(COc1nc2ccccc2nc1N1CCOCC1)NCC(F)(F)F,-4.2,3,-22,1,-1%,
Cc1oc(-c2ccccc2F)nc1CN1CCC(C(=O)NCc2cccs2)CC1,3.9,4,-22,-2,-5%,
